# Screening results deposited in PubChem by National Center for Advancing Translational Sciences (NCATS).
# 2A StopGo: lowers the luciferase signal of an FMDV 2A StopGo reporter. Potency, µM (highest dose often 57.9 µM), without a hit: at the highest dose signal change, negative = less light. human cells with a luciferase reporter of 2A StopGo recoding; control for the full effect not named in the record. hit rate 1.2% among 410,000. AID 1159524; active = well fitted falling curve with a large enough effect; inconclusive = small, poorly fitted or top-dose-only effect; inactive = no such curve, though single readings can be large or run the other way; tested in HEK293T cells; further: on the % scale 0 is the no-effect control and ±100 the full control effect; nearly all actives have a fitted effect of over 45% in size; luciferase light after 4 h
# Cruzain inh Det: blocks cruzain activity in presence of Triton detergent; P25779; purified cruzain, Z-FR-AMC fluorescence, 0.01% Triton; Potency, µM, for inactives: max response, negative = inhibition, most hits filed as inhibitors; hit rate 0.43% among 200,000; AID 1478; active means well fitted curve in the direction sought with a large enough effect; inconclusive means small, poorly fitted or top-dose-only effect, or another doubt; inactive means no such curve, though single readings can be large; an effect the other way counts as inactive or inconclusive;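 further: plate controls were neutral wells for no effect and buffer without enzyme for full effect; nearly all actives have a fitted effect of over 40% in size; top concentration of the series not given in the record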
# Target sequence (P25779 123-467 limits assumed): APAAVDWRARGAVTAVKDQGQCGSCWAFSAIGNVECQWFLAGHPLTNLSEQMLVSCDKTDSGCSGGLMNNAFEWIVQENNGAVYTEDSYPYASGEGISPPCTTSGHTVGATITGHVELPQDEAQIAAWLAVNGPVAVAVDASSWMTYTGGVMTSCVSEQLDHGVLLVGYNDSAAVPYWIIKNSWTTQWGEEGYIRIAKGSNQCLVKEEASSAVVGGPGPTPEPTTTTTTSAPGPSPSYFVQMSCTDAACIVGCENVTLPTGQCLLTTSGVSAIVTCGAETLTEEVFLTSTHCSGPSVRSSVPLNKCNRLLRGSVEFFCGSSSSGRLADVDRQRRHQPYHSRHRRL
#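 15 min RT preincubation of 1.5 nM cruzain with compound, then 2 uM Z-FR-AMC added; kinetic AMC fluorescence, 60 s delta. Triton X-100 0.01%, pH 5.5.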
# SARS PLP yeast: SARS-CoV PLP inhibition in yeast | S. cerevisiae expressing SARS-CoV PLpro, growth rescue; control for the full effect not named in the record | Potency, µM (series often up to 32.9 µM), for the others: at the highest dose activity, positive = growth rescue | hit rate 0.19% among 330,000 | AID 485353; further: 0% is about no effect; nearly all actives have a fitted effect of over 55% in size; growth read by luminescence after 48 h
# LASV entry inh: Lassa virus entry inhibition. AID 540256. hit rate 1.2% among 300,000. Lassa virus pseudotype entry inhibition, cell reporter; control for the full effect not named in the record. Potency, µM (series often up to 37.9 µM), for the others: top-dose activity change, negative = inhibition, most hits filed as inhibitors; active means well fitted inhibition curve with a large enough effect; inconclusive means small, poorly fitted or top-dose-only effect, or effect the other way; inactive means flat fitted curve, though single readings scatter; tested in HEK293 cells; further: on the % scale 0 is the no-effect control and ±100 the full control effect; nearly all actives have a fitted effect of over 50% in size; luciferase read-out
# MARV entry inh: Marburg virus entry inhibition. Marburg virus pseudotyped entry inhibition, cell reporter; control for the full effect not named in the record; about a third of the inactives were read at about 46 µM. Potency, µM (titrated, usually from 37.8 µM), inactives show at the highest dose activity change, negative = inhibition, actives largely listed as inhibitors. hit rate 1.8% among 300,000. AID 540276; active = well fitted inhibition curve with a large enough effect; inconclusive = small, poorly fitted or top-dose-only effect, or effect the other way; inactive = flat fitted curve, though single readings scatter; tested in HEK293 cells; about a fifth of its hits are not listed in these tables; further: on the % scale 0 is the no-effect control and ±100 the full control effect; luciferase read-out
# Cruzain inh noDet: inhibitors of Trypanosoma cruzi cruzain without detergent | AID 1476 | hit rate 2.3% among 200,000 | Potency, µM, for inactives: max response, negative = inhibition, most hits filed as inhibitors | purified cruzain, Z-FR-AMC fluorescence, no detergent | P25779; active means well fitted curve in the direction sought with a large enough effect; inconclusive means small, poorly fitted or top-dose-only effect, or another doubt; inactive means no such curve, though single readings can be large; an effect the other way counts as inactive or inconclusive;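 further: plate controls were enzyme without inhibitor for no effect and buffer without enzyme for full effect; nearly all actives have a fitted effect of over 40% in size; top concentration of the series not given in the record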
#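 Detergent-free condition (0.00005% Triton X-100) in acetate buffer pH 5.5 with DTT. 1.5 nM enzyme and compound were pre-mixed 15 min, then 2 uM Z-FR-AMC substrate added; reaction progress from fluorescence change between first and third reads (60 s).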
# RE007 growth inh: less growth of the S. pombe RE007 Vpr strain; S. pombe RE007 Vpr strain, BacTiter-Glo ATP luminescence, 24 h; control for the full effect not named in the record; Potency, µM (series often up to 92.2 µM), without a hit: at the top dose activity change, negative = less growth; hit rate 0.21% among 360,000; active = well fitted falling curve with a large enough effect; inconclusive = small, poorly fitted or top-dose-only effect; inactive = no such curve, though single readings can be large or run the other way;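 further: on the % scale 0 is the no-effect control and ±100 the full control effect; nearly all actives have a fitted effect of over 50% in size; the assay follows cell death caused by Vpr and the record does not say whether a fall means rescue or toxicity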
#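 Fission yeast RE007 carrying one integrated HIV-1 vpr copy, seeded at OD 0.01 in PMG+AL medium with 23 nL pinned compound. Grown 24 h at 30 degrees; viability read by BacTiter-Glo luminescence after 5 min.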
# NS1 function inh: inhibitors of influenza NS1 protein function; Potency, µM (doses to about 46.1 µM), inactives show at the top dose activity, positive = more growth; S. cerevisiae slowed by influenza A NS1, growth recovery by OD600; hit rate 0.4% among 270,000; AID 2326; further: actives are rising curves; nearly all actives have a fitted effect of over 50% in size
#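 OD600 was taken as the measure of yeast growth restored by compound in an NS1-expressing S. cerevisiae strain. Cells had been washed out of glucose medium and diluted 1:100 into galactose -URA medium, pH 6.0.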
# Active calls of the source: *; ? = inconclusive; nt = not tested or not shown; & = joins results of further samples; [ ] = another dose, or the depositor's remark. Unless noted, the call rests on the fitted dose curve; in most records, active means well fitted rising curve with a large enough effect; inconclusive means small, poorly fitted or top-dose-only effect; inactive means no such curve, though single readings can be large or run the other way. Potency means the concentration at half of the fitted maximal effect. This is a random part of the collection; about 4.7% have a hit in one of these screens.
SMILES,2A StopGo,Cruzain inh Det,SARS PLP yeast,LASV entry inh,MARV entry inh,Cruzain inh noDet,RE007 growth inh,NS1 function inh
COc1ccc(OC)c(N/C(N)=N/c2nc(C)cc(C)n2)c1,-22%,nt,-1%,nt,nt,nt,-4%,10%
CCOC(=O)N1CCC(NC(=O)C(NC(=O)C2CCCCC2)C(C)C)CC1 (stereo unspecified),nt,-3.2%,-6%,nt,2%,1%,nt,1%
O=C(NNC(=O)c1cccnc1)c1ccncc1,-2%,nt,0%,1%,0%[46.1 µM],nt,83%,1%
Cc1ccc(Cl)cc1NC(=O)Cn1c(=O)n(CCCS(=O)(=O)C2CCCCC2)c(=O)c2ccccc21,-14%,-2.8%,nt,-15%[46.1 µM],?,-2%,nt,nt
Cc1cc(C)cc(NC(=O)Nc2cc(S(=O)(=O)N(C)C)ccc2C)c1,-23%,nt,-1%,13µM*,?,nt,16%,1%
CCCCc1nc2ccccc2c(NC(=O)CN2CCN(C)CC2)c1CCC,-4%,-1.3%,1%,8%,?,-7%,-16%,-2%
CC1CCCN(C(=O)Cn2c(=O)n(CC3CCC(C(=O)NC(C)C)CC3)c(=O)c3sccc32)C1 (stereo unspecified),-5%,7.9%,nt,2%[46.1 µM],nt,13%,nt,nt
CC(C)(C)c1ccc(/C=C(\C#N)C(=O)NC2CC2)cc1,-1%,nt,nt,17%,4%[46.1 µM],nt,-1%,nt
N#C[C@]1(S(=O)(=O)c2ccccc2)C[C@@H]2ON=C(c3cccc(Br)c3)[C@@H]2C1,?,nt,-6%,nt,nt,nt,-12%,-33%
CCOC(=O)N1CCc2c(sc3c2c(=O)n(-c2ccc(CC)cc2)c(=O)n3Cc2cc(C)ccc2C)C1,-9%,0.4%,nt,8%[46.1 µM],?,0%,nt,nt
CCOC(=O)N1CCN(Cc2nc3cc(NC(=O)c4ccccc4OC)ccc3n2C(C)C)CC1,?,-3.3%,nt,-15%[46.1 µM],?,?,nt,nt
O=C1c2ccccc2C(=O)N1c1ccc(Cc2ccncc2)cc1,-10%,nt,7%,5%[46.1 µM],-12%[46.1 µM],nt,6%,-2%
CC(C)NC(=O)c1ccccc1-c1nc(-c2ccccc2Cl)no1,-16%,2.5%,5%,-2%,-1%,-9%,-1%,-14%
COc1cc(NC(=O)CCCNC(=O)c2ccc(Cl)cc2)cc(OC)c1,-9%,nt,2%,-9%[46.1 µM],-12%[46.1 µM],nt,-9%,2%
CCOC(=O)c1ccc(NC(=O)CSc2nc3c(c(=O)n2C)SC(C)C3)cc1 (stereo unspecified),-15%,-4.4%,-1%,nt,nt,-15%,7%,-92%
CCc1ccc(S(=O)(=O)c2nnn3c2nc(NCCc2ccccc2)c2sccc23)cc1,9%,1.1%,nt,?,nt,?,nt,nt
Cc1cc(C)c2cccc(N)c2n1,-15%,nt,0%,-1%[46.1 µM],12%[46.1 µM],nt,-10%,3%
Cc1ccc(NC(=O)C2CC(=O)n3c(nc4ccccc43)N2)cc1C (stereo unspecified),1%,nt,0%,2%,-21%,nt,-15%,-1%
CC(C)N(C(=O)N1CCN(c2ccnc3cc(Cl)ccc23)CC1)C(C)C,?,nt,0%,11µM*,?,nt,-11%,-13%
O=C(NCCCN1CCCC1=O)c1ccc(S(=O)(=O)Nc2cccc(C(F)(F)F)c2)cc1,-12%,nt,-9%,?,?,nt,-4%,nt
CCc1ccc(CNC(=O)c2ccc3c(c2)c(C)c(C)n3Cc2ccccc2)cc1,-1%,1.8%,nt,-3%[46.1 µM],nt,32µM*,nt,nt
CC1=C(C(=O)Nc2ccccn2)C(c2ccc(Br)cc2)NC(=S)N1 (stereo unspecified),29%,-5.0%,-1%,-10%,?,-11%,-4%,-2%
Cc1nn(-c2ccccc2)c(C)c1-c1cc(C(=O)N/N=C/c2ccc(O)cc2)[nH]n1,-21%,nt,0%,nt,nt,nt,20%,-6%
COC(=O)c1sc(S(=O)(=O)Oc2ccccc2NC(C)=O)c(C(=O)OC)c1C,15%,nt,-3%,-13%,1%,nt,-23%,nt
CCc1nnc2c(N(C)C)nc3ccccc3n12,7%,-4.8%,-2%,-11%,3%,-6%,10%,-7%
SMILES,2A StopGo,Cruzain inh Det,SARS PLP yeast,LASV entry inh,MARV entry inh,Cruzain inh noDet,RE007 growth inh,NS1 function inh
CC1c2cc3c(cc2CCN1S(=O)(=O)c1ccccc1)OCCCO3 (stereo unspecified),-26%,nt,-1%,-11%[46.1 µM],-18%[46.1 µM],nt,-3%,-12%
COCCNC(=O)C(=O)NCC1OCCCN1S(=O)(=O)c1cccs1 (stereo unspecified),-8%,-0.1%,-15%,11%,1%,0%,nt,14%
COc1ccc(OC)c(NC(=O)CNC(=O)Cn2cnc3ccccc3c2=O)c1,-4%,1.8%,3%,-4%,0.71µM*,3%,0%,-2%
Cc1ccc(OCCSc2nc3ccccc3n2CC(=O)NC(C)C)cc1,-7%,-3.2%,nt,?,1%[46.1 µM],2%,nt,nt
S=C(Nc1cccc(Cl)c1Cl)NC1CCN(Cc2ccccc2)CC1,-6%,nt,-4%,?,?,nt,-6%,-17%
CCCOc1ccc(/C=N/NC(=O)CSc2ccccn2)cc1OC,-1%,nt,-1%,8%[46.1 µM],?,nt,-9%,-5%
NS(=O)(=O)c1ccc(CNC(=O)c2ccc(NS(=O)(=O)c3cccs3)cc2)cc1,8%,nt,3%,-16%,3%,nt,7%,nt
COc1cc(NC(=O)c2ccccc2Cl)c(OC)cc1NC(=O)CN1CCCCC1,-11%,nt,1%,10%[46.1 µM],0%[46.1 µM],nt,-24%,1%
CCC(CC)NC(=O)c1ccccc1Oc1ccccc1,-19%,1.3%,-3%,3%,-28%,-4%,35%,-2%
COc1ccc(CCNC(=O)CCS(=O)(=O)c2ccc3c(c2)NC(=O)CO3)cc1OC,-6%,nt,-3%,20%[46.1 µM],7%[46.1 µM],nt,-2%,-4%
CCCC(=O)Nc1nc2ccc3nc(C)sc3c2s1,61%[activator],0.5%,-1%,16%,-18%,?,13%,-5%
Cc1cc(Cl)ccc1Oc1nccc(N(C)C)c1C#N,nt,-5.3%,2%,?,?,-6%,-14%,10%
CCOC(=O)C1(Cc2cccc(Cl)c2)CCCN(C(=O)C(C)(C)C)C1 (stereo unspecified),23%,nt,-3%,9%[46.1 µM],?,nt,5%,nt
Cc1csc(SCC(=O)Nc2ccccc2)n1,45%[activator],nt,-2%,21%[46.1 µM],23%[46.1 µM],nt,-12%,?
O=C(N/N=C/c1ccc(-c2cccc(C(F)(F)F)c2)o1)c1ccccc1Br,nt,-9.3%,-8%,?,5%,18%,-15%,7%
COC(=O)CCCC1=CC2=CC(=O)C(C)(OC(=O)CCc3ccccc3)C(=O)C2=CO1 (stereo unspecified),-5%,-1.0%&3.3%,-4%,nt,-23%&-23%&-23%&-23%[14.2 µM],-15%&1%,-4%,6%
CCOc1cc([C@@H]2C[C@H]3CN(c4ccccc4)C(=O)[C@]34CCCN24)ccc1OC,4%,nt,0%,nt,?,nt,-1%,3%
Cc1ccc(NC(=O)CN(C)C(=O)CNC(=O)c2sc3ccccc3c2Cl)cc1,49%[activator],nt,nt,23%,?,nt,-5%,nt
O=[S@]1Oc2ccccc2-c2ccccc21,-3%,nt,nt,15%,?,nt,?,nt
COc1cc(C(=O)Nc2cccc3c2CCCC3)cc(OC)c1OC,-21%,nt,0%,?,-28%[46.1 µM],nt,1%,-14%
CCOC(=O)c1c[nH]c(=O)c(Br)c1O,-4%,-0.2%,-1%,5%,6%,-16%,11%,-2%
Cc1cnn(-c2cc(N/N=C/c3cccc(F)c3)ncn2)c1,1%,-1.9%,-4%,-8%,0%,21%,-12%,0%
CN(C)CCNC(=O)C(=O)NCC(c1cccnc1)N1CCN(c2ccc(F)cc2)CC1 (stereo unspecified),-22%,-3.0%,nt,-16%[46.1 µM],nt,4%,nt,nt
CCOC(=O)C1(Cc2cccc(OC)c2)CCCN(Cc2cnn(C)c2)C1 (stereo unspecified),2%,nt,0%,-13%,5%[46.1 µM],nt,-7%,3%
Cc1cc2occ(CC(=O)N(C)CC(=O)Nc3ccccc3Br)c2cc1C,-18%,nt,0%,-7%,11%,nt,8%,nt
SMILES,2A StopGo,Cruzain inh Det,SARS PLP yeast,LASV entry inh,MARV entry inh,Cruzain inh noDet,RE007 growth inh,NS1 function inh
COc1ccc(N2C(=O)CC(Sc3ncccc3C(=O)O)C2=O)cc1 (stereo unspecified),nt,5.3%,-1%,-1%,5%,-2%,-5%,6%
CS(=O)(=O)N1CCN(CCN2C(=O)c3cccc4cccc(c34)C2=O)CC1,-17%,nt,0%,-18%,9%[46.1 µM],nt,-18%,2%
Cc1c(NC(=O)CSc2nnnn2-c2ccc(O)cc2)c(=O)n(-c2ccccc2)n1C,13%,4.5%,6%,2%,3%,9%,-4%[3.69 µM],-6%
NC(=O)c1nsc(C(=O)N(CC(=O)NC2CCCC2)Cc2ccc3c(c2)OCO3)c1N,-5%,nt,1%,4%,17%&17%,nt,5%,2%
O=C(COC(=O)c1ccccc1-n1cnnn1)c1ccc(F)c(F)c1,24%,nt,2%,13%,15%,nt,-7%,nt
COC(=O)c1sccc1S(=O)(=O)N1CCN(c2ccc(C(C)=O)cc2)CC1,25%,-4.4%,nt,1%[46.1 µM],nt,-7%,nt,nt
CCC(C)(C)NC(=O)C(c1cccc(OC)c1OC)N(C(=O)CCC(=O)Nc1cc(C)on1)c1ccc2c(c1)OCCO2 (stereo unspecified),-9%,nt,0%,-21%,?,nt,-23%,-5%
COc1ccc(/C(O)=C2/C(=O)C(=O)N(CC3CCCO3)C2c2ccc(OC)c(OC)c2)cc1 (stereo unspecified),-8%,-1.4%,5%,18%,11%,5%,-1%,4%
CC(C)c1ccc(CNc2nc(-c3ccco3)nn2S(=O)(=O)c2ccccc2)cc1,14%,-6.6%,nt,18%[46.1 µM],?,0%,nt,nt
O=C(CCC(=O)N(CC(=O)NC1CCCC1)Cc1cccs1)Nc1nccs1,-4%,nt,0%,-17%,11%,nt,1%,0%
C=CCNC(=O)CCCC(=O)NCC=C,6%,0.9%,13%,9%,16%,-4%,0%,-10%
O=C(NCCc1c[nH]c2ccccc12)/C(=C\c1cccs1)NC(=O)c1ccccc1,-15%,-3.7%,5%,-8%,10%,3%,3%,-9%
Cc1ccc(NC(=O)C(Cc2ccccc2)NS(=O)(=O)c2ccc3c(c2)CCC(=O)N3)cc1 (stereo unspecified),-2%,2.7%,nt,-17%[46.1 µM],-4%[46.1 µM],-2%,nt,nt
